# Vaccinia inh – blocks a specific stage of Vaccinia orthopoxvirus infection | Vaccinia-infected cells, mCherry/Venus stage reporter fluorescence; hits give low values; some inactives read as strong as hits | activity change (mCherry), % (test concentration not listed) | actives 0.01% (n = 89,000) | AID 1053133;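 active = mCherry past -33% and 40 or more points under the early reporter, replicates agreeing; inconclusive = past -33% without that gap or agreement; tested in A549 cells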;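 also: scaled between vehicle wells and reference inhibitor wells; 23 nL library stock went into each well; one replicate is shown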
# Vaccinia inh Venus – also measured in Vaccinia inh; calls as there; activity change (Venus), %; measured here: Venus reporter, other viral stage;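 negative = less Venus signal; first of two replicates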
# Numbers without * were called inactive; ? = inconclusive; / = no result given. Not all compounds are listed; the hit share may differ from the screen's.
SMILES,Vaccinia inh,Vaccinia inh Venus
CCCNC(=O)Nc1ccc2c(c1)C(=O)N(C)[C@@H]1CC[C@@H](CC(=O)NCCCN(C)C)O[C@H]1CO2,-4,2
Cc1noc(C)c1S(=O)(=O)N(C)C[C@H]1OCCCC[C@@H](C)Oc2ccc(NC(=O)Nc3ccccc3)cc2C(=O)N([C@H](C)CO)C[C@@H]1C,-10,-1
O=C(CCN1CCCCC1)NCC[C@@H]1CC[C@H](NC(=O)C2CCCC2)[C@H](CO)O1,8,7
O=C(Nc1ccc(Cl)cc1)N[C@H]1CC[C@H](CCn2cc(C3(O)CCCC3)nn2)O[C@@H]1CO,-1,4
CN1CCN(C(=O)C[C@H]2C[C@H]3c4cc(NC(=O)Cc5ccncc5)ccc4O[C@H]3[C@@H](CO)O2)CC1,-5,-9
C[C@@H]1CCCCO[C@H](CN(C)S(=O)(=O)c2cn(C)cn2)[C@H](C)CN([C@H](C)CO)C(=O)c2cc(NC(=O)CCCN(C)C)ccc2O1,20,7
C[C@@H]1CN([C@@H](C)CO)C(=O)c2cc(C#CCN(C)C)cnc2O[C@H]1CN(C)Cc1ccc(-c2ccccc2)cc1,?,/
CC(C)NC(=O)N(C)C[C@H]1Oc2c(NS(=O)(=O)c3ccc(Cl)cc3)cccc2C(=O)N([C@H](C)CO)C[C@H]1C,9,5
C[C@H]1CCCCO[C@@H](CN(C)CC2CCCCC2)[C@@H](C)CN([C@@H](C)CO)C(=O)c2cc(NC(=O)Nc3ccc4c(c3)OCO4)ccc2O1,?,/
C[C@H]1CN([C@@H](C)CO)C(=O)Cc2cc(NS(=O)(=O)c3ccc(Cl)cc3)ccc2O[C@H]1CN(C)Cc1ccncc1,15,5
COc1ccc(NC(=O)N(C)C[C@@H]2Oc3ccc(NS(=O)(=O)c4ccc(Cl)cc4)cc3CC(=O)N([C@H](C)CO)C[C@H]2C)cc1,1,2
CN1c2ccc(Br)cc2[C@@H]2NCC[C@@H]2[C@@H]1CO,9,10
COc1ccc(C#Cc2ccc3c(c2)[C@H]2[C@H](CCN2S(=O)(=O)c2ccc(OC)cc2)[C@@H](CO)N3C)cc1,35,13
COCC(=O)N1CC2(C1)[C@@H](c1ccc(-c3ccccc3)cc1)[C@H](CO)N2C(C)=O,2,9
C[C@H](CO)N1C[C@H](C)[C@H](CN(C)CC2CC2)Oc2ccc(NS(C)(=O)=O)cc2CC1=O,3,7
COC(=O)C[C@@H]1CC[C@@H]2[C@H](COc3ccc(NC(=O)Nc4cc(C)cc(C)c4)cc3C(=O)N2C)O1,-21,-17
COC(=O)N(C)C[C@@H]1OCc2ccccc2-c2ccccc2C(=O)N([C@@H](C)CO)C[C@H]1C,31,25
C[C@@H]1CN([C@H](C)CO)C(=O)c2cccc(NC(=O)Nc3ccc(F)cc3)c2O[C@H]1CN(C)CC1CCCCC1,-13,-8
CN(C)c1ccc2c(c1)[C@H]1C[C@H](CC(=O)NCc3ccc(Cl)cc3)O[C@@H](CO)[C@H]1O2,7,10
CCCN(C)C[C@H]1Oc2cc(C#CC(C)C)ccc2S(=O)(=O)N([C@H](C)CO)C[C@H]1C,7,4
CN(C)C(=O)C[C@H]1CC[C@H]2[C@@H](COc3ccc(NC(=O)c4cnccn4)cc3C(=O)N2C)O1,3,5
O=C(c1cccc(F)c1)N1CCCCN2[C@H](CO)[C@H](c3ccc(-c4cncnc4)cc3)[C@H]2C1,32,-4
C/C=C/c1ccc(C2[C@H]3CNC[C@@H]2N3S(=O)(=O)Cc2ccccc2)cc1 (stereo partly drawn),6,15
COc1ccc(-c2cnc3c(c2)C(=O)N([C@@H](C)CO)C[C@H](C)[C@H](CN(C)C(=O)Cc2ccccc2)O3)cc1,-10,-20
CC=Cc1ccc2n(c1=O)C[C@H]1[C@H](CO)[C@@H](C(=O)NCCC)[C@@H]2N1Cc1ccccc1OC (mixture of isomers),9,9
CO[C@H]1CN(C)C(=O)c2cc(NS(=O)(=O)c3ccc(C)cc3)ccc2OC[C@@H](C)N(Cc2nccs2)C[C@H]1C,?,/
O=C(NCC[C@@H]1CC[C@@H](NC(=O)C2CCCCC2)[C@H](CO)O1)c1cc(Cl)cc(Cl)c1,10,4
COCC#Cc1ccc([C@H]2[C@@H](CO)N3C(=O)CN(C(=O)Nc4ccc(F)cc4)C[C@@H]23)cc1,3,-1
C[C@@H]1CN([C@H](C)CO)C(=O)c2cc(NC(=O)Cc3ccccc3)ccc2O[C@@H](C)CCCCO[C@@H]1CN(C)Cc1ccc(Cl)c(Cl)c1,?,/
COc1ccc(NC(=O)N(C)C[C@@H]2Oc3ccc(NS(=O)(=O)c4ccc(F)cc4)cc3CC(=O)N([C@@H](C)CO)C[C@@H]2C)cc1,6,2
COc1ccc(NC(=O)Nc2ccc3c(c2)C(=O)N([C@@H](C)CO)C[C@@H](C)[C@@H](CN(C)S(=O)(=O)c2ccc(Cl)cc2)O3)cc1,-19,-11
O=C(NC1CCCC1)N1CC(=O)N2[C@H](CO)[C@H](c3ccc(-c4cccnc4)cc3)[C@H]2C1,43,21
CO[C@@H]1CN(C)C(=O)c2cc(NS(=O)(=O)CC(F)(F)F)ccc2OC[C@H](C)N(C(=O)NC(C)C)C[C@H]1C,6,8
CCCNC(=O)Nc1ccc2c(c1)C(=O)N(C)[C@@H]1CC[C@@H](CC(=O)OC)O[C@@H]1CO2,1,2
COCC(=O)Nc1ccc2c(c1)C(=O)N(C)[C@H]1CC[C@@H](CC(=O)NCc3ccccc3F)O[C@@H]1CO2,-3,1
CN(C)CCCNC(=O)C[C@H]1CC[C@@H]2[C@H](COC[C@@H](O)CN2CC2CCCCC2)O1,-5,-2
C[C@H](CO)N1C[C@H](C)[C@H](CN(C)Cc2ccc(Oc3ccccc3)cc2)Oc2ccc(NC(=O)Nc3ccc4c(c3)OCO4)cc2CC1=O,?,/
C[C@@H]1CN([C@@H](C)CO)C(=O)c2cc(-c3ccccc3F)cnc2O[C@@H]1CN(C)C(=O)CN(C)C,13,4
N#C[C@@H]1[C@@H](c2ccccc2C2=CCCCC2)[C@@H](CO)N1C(=O)c1cccc(F)c1,-3,-10
Cc1cc(C(=O)Nc2cccc3c2O[C@H](CN(C)S(=O)(=O)c2cn(C)cn2)[C@@H](C)CN([C@@H](C)CO)C3=O)n(C)n1,38,18
COc1cccc(S(=O)(=O)N[C@@H]2C=C[C@@H](CC(=O)NC3CCC3)O[C@@H]2CO)c1,12,3
C[C@@H]1CCCCO[C@H](CN(C)C(=O)CCC(F)(F)F)[C@H](C)CN([C@H](C)CO)C(=O)c2cc(NS(=O)(=O)c3ccc(F)cc3)ccc2O1,?,/
Cc1noc(C)c1NC(=O)N(C)C[C@@H]1Oc2ccc(NS(=O)(=O)c3ccc(F)cc3)cc2CC(=O)N([C@H](C)CO)C[C@H]1C,-1,18
CN1CCN(C(=O)C[C@H]2CC[C@H]3[C@H](COc4ccc(NC(=O)c5cccs5)cc4C(=O)N3C)O2)CC1,7,9
COCC#Cc1cnc2c(c1)C(=O)N([C@H](C)CO)C[C@H](C)[C@@H](CN(C)C(=O)C1CCCCC1)O2,-6,-4
COCC(=O)N1[C@@H]2c3cccc(=O)n3C[C@@H]2[C@@H](CO)[C@@H]1C(=O)NCc1ccccc1Cl,2,2
C[C@H]1CN([C@@H](C)CO)C(=O)c2cccc(NC(=O)c3ccc(-c4nccs4)cc3)c2O[C@H]1CN(C)C(=O)Nc1cccc2ccccc12,-27,-22
C[C@@H]1CCCCO[C@@H](CN(C)CC2CCCCC2)[C@@H](C)CN([C@@H](C)CO)C(=O)c2cc(NC(=O)C3CCCCC3)ccc2O1,?,/
O=C(NCC[C@@H]1CC[C@H](NS(=O)(=O)c2ccc(F)cc2)[C@@H](CO)O1)Nc1ccc(F)cc1,-4,-3
C[C@H]1CN([C@@H](C)CO)C(=O)c2cccc(NC(=O)Nc3ccc(F)cc3)c2O[C@@H]1CN(C)S(=O)(=O)c1cccs1,0,-2
O=C(NCC[C@H]1CC[C@@H](NC(=O)C2CC2)[C@@H](CO)O1)c1cnccn1,9,12
COc1ccc(S(=O)(=O)Nc2ccc3c(c2)C(=O)N([C@@H](C)CO)C[C@H](C)[C@@H](CN(C)S(=O)(=O)c2ccc(OC)cc2)O3)cc1,3,13
Cc1ccc(S(=O)(=O)N(C)C[C@H]2Oc3ccc(NC(=O)Nc4ccc(C(F)(F)F)cc4)cc3CC(=O)N([C@@H](C)CO)C[C@H]2C)cc1,-26,-15
C[C@H](CO)N1C[C@H](C)[C@@H](CN(C)C(=O)Nc2ccc(C(F)(F)F)cc2)Oc2ccc(NC(=O)Nc3ccccc3)cc2C1=O,26,22
C[C@H](CO)N1C[C@H](C)[C@@H](CN(C)Cc2cccc(C(=O)O)c2)Oc2ncc(C#CCN(C)C)cc2C1=O,17,16
C#Cc1ccc([C@H]2C=C(C(=O)N3CCOCC3)O[C@@H](OCC)[C@@H]2CCCO)cc1,-4,7
O=C(C[C@H]1C[C@H]2c3cc(NC(=O)Cc4ccncc4)ccc3O[C@H]2[C@@H](CO)O1)NCCc1ccccc1,7,0
C[C@@H]1CN([C@H](C)CO)C(=O)c2cccc(NC(=O)Nc3cccc4ccccc34)c2O[C@@H]1CN(C)Cc1ccc(C(=O)Nc2ccccc2N)cc1,5,3
C[C@@H]1CCCCO[C@@H](CN(C)C(=O)CCCN(C)C)[C@@H](C)CN([C@@H](C)CO)C(=O)c2cc(NS(=O)(=O)c3ccccc3)ccc2O1,39,10
CCC(=O)N1CC(=O)N2[C@H](C1)[C@H](c1ccc(C#Cc3cccnc3)cc1)[C@@H]2CO,-4,1

# Next entries follow.
SMILES,Vaccinia inh,Vaccinia inh Venus
C[C@@H]1CN([C@@H](C)CO)C(=O)Cc2cc(NC(=O)C3CC3)ccc2O[C@@H]1CN(C)C(=O)Nc1ccc(F)cc1,23,8
O=C(NCCCN1CCOCC1)[C@@H]1N[C@@H]2c3ccc(C4=CCCC4)c(=O)n3C[C@@H]2[C@H]1CO,8,6
Cc1ccc(S(=O)(=O)N[C@@H]2CC[C@@H](CC(=O)N3CCC(Cc4ccccc4)CC3)O[C@H]2CO)cc1,-27,-21
CN(C)CC(=O)N1CC2(C1)[C@H](c1ccccc1)[C@H](CO)N2S(C)(=O)=O,5,12
COc1ccc(C#Cc2ccc([C@@H]3[C@H]4CN(S(=O)(=O)c5ccccc5)CCCCN4[C@H]3CO)cc2)cc1,5,-3
O=C(C[C@H]1C=C[C@H](NS(=O)(=O)c2ccccc2)[C@@H](CO)O1)NCc1ccccc1F,4,-4
N#Cc1ccc(-c2ccc3c(c2)[C@H]2[C@H](CCN2Cc2ccc4c(c2)OCO4)[C@H](CO)N3)cc1,?,/
CCCC#Cc1cnc2c(c1)C(=O)N([C@H](C)CO)C[C@H](C)[C@H](CN(C)C(=O)c1cccnc1)O2,24,13
O=C(C[C@@H]1C[C@@H]2c3cc(NC(=O)Nc4ccccc4F)ccc3O[C@@H]2[C@@H](CO)O1)NCC1CC1,5,6
CN(C)CC(=O)N[C@@H]1CC[C@H](CC(=O)NCc2ccc(Cl)cc2)O[C@@H]1CO,11,12
C[C@H](NC(=O)C[C@@H]1C=C[C@H](NC(=O)C2CCC2)[C@@H](CO)O1)c1ccccc1,-2,6
O=C(C[C@@H]1CC[C@@H](NS(=O)(=O)c2ccccc2)[C@H](CO)O1)N1CCc2ccccc2C1,7,0
O=C(C[C@H]1C[C@@H]2c3cc(NC(=O)C4CCOCC4)ccc3O[C@@H]2[C@@H](CO)O1)NC1CCCC1,12,11
Cn1cnc(S(=O)(=O)N2C[C@@H](O)COC[C@H]3O[C@H](CC(=O)NCc4ccc(F)cc4)CC[C@@H]32)c1,13,10
O=C(C[C@H]1CC[C@H]2[C@@H](COC[C@@H](O)CN2C(=O)Cc2ccccc2)O1)NC1CCCC1,3,8
CCC(=O)N1C[C@H](C)[C@@H](OC)CN(C)C(=O)c2cc(NC(=O)Nc3ccc(Cl)cc3)ccc2OC[C@@H]1C,-22,-11

# High-throughput results deposited in PubChem by Broad Institute.
